High-throughput results (PubChem)
Mtb hypoxia inh = inhibitors of hypoxia-regulated fluorescent reporter in Mycobacterium tuberculosis | M. tuberculosis hypoxia-regulated fluorescent reporter, fluorescence | fluorescence inhibition, % (concentration not given with the values) | 300,000 compounds, 0.1% hits | AID 1159583;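 active = 35 to 45% if threefold the growth effect, above 45% if 1.5-fold the growth effect; inactive = the rest, general growth blockers included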;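 also: wells of about 50 µL received 100 nL stock; 0% = vehicle wells and 100% = reference inhibitor wells; whole bacteria with a GFP reporter of the hypoxia response; strong numbers were not always called active; many hits fall short of the cut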
BJeLR viability = kills HRASV12-expressing BJeLR cells | 300,000 compounds, 0.17% hits | BJeLR (HRASV12) viability, CellTiter-Glo ATP luminescence, 48 h; reference of the scale not given here | inhibition, % (test concentration not listed);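 active = replicate mean above 50%; inconclusive = above 50% but judged a plate artefact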;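 also: 50 nL library stock added to about 25 µL; numbers are from one replicate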
Sa ugtP lethal = growth inhibition of S. aureus ugtP deletion strain; S. aureus RN4220 ugtP deletion, OD600 growth, 16 h; some inactives read as strong as hits; growth inhibition, % (concentration not given with the values); 330,000 compounds, 0.54% hits;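 active = z-score under -3 and OD600 up to 0.15 on both plates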;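 also: plate controls were untreated wells for no effect and antibiotic for full effect; wells of about 80 µL received 100 nL stock; the first replicate is given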
Bead autofluor = compound fluorescence in toxin protease inhibitor counterscreen. compound autofluorescence counterscreen, microsphere flow cytometry; hits give high values. fluorescence intensity (no concentration beside the values). 360,000 compounds, 3.1% hits;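 active = at least 3 SD above the mean of all compounds, about 16000 in these data; inconclusive = too few beads counted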;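 also: 100 nL of 1 mM stock went into each well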
PrP 5UTR inh = suppresses PrP 5' UTR mRNA reporter expression. cell-based PrP 5' UTR mRNA reporter, plate reader. inhibition, % (concentration not given with the values). 340,000 compounds, 0.35% hits. AID 488862;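 active = every replicate at 50% or more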;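 also: 0 = median of the neutral control wells; tested in H4 reporter cells; numbers are from one replicate; inactives centre near -14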
RN4220 kill = kills Staphylococcus aureus RN4220. AID 1259311. S. aureus RN4220 growth, OD600, 16 h. inhibition, % (concentration not given with the values). 330,000 compounds, 0.33% hits;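 active = z-score of -3 or lower and OD600 up to 0.18 on both plates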;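 also: plate controls were untreated cells for no effect and reference antibiotic for full effect; stock transfer was 100 nL into about 80 µL; one replicate is shown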
Mtb hypoxia inh growth = second read-out of Mtb hypoxia inh, no call of its own (marks repeat the call); growth inhibition, %; measured here: M. tuberculosis growth (absorbance);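 0% = vehicle and 100% = reference antibiotic; read after six days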
Numbers without * were called inactive; ? = inconclusive; . = not tested or not shown. Random draw from the library; overall some 4% were active at least once.

compound	Mtb hypoxia inh	Mtb hypoxia inh growth	BJeLR viability	Sa ugtP lethal	Bead autofluor	PrP 5UTR inh	RN4220 kill
Nc1nonc1-c1noc(CCCN2C(=O)c3ccccc3C2=O)n1	5.5	2.1	-1.0	7.7	4417	-14.7	6.1
CCC(C)C(NC(=O)OCc1ccccc1)C(=O)NC(Cc1ccc(O)cc1)C(=O)OC (centres undefined)	-0.5	11.3	1.6	-0.3	4187	4.2	-0.7
CC(C)(C)NC(=O)C[C@H]1C[C@H](C(=O)N2CCCCC2)[C@@]2(CCc3ccccc3)c3[nH]c4cc(-c5ccco5)ccc4c3CCN2C1=O	-12.0	11.7	.	-10.3	4232	-18.6	4.6
CN(C)c1cccc(C(=O)N/N=C/c2ccoc2)c1	.	.	8.7	.	3356	-16.4	.
COc1ccc2nc3oc(C(=O)N4CCN(c5cccc(Cl)c5)CC4)cc3cc2c1	.	.	1.7	-4.5	2542	-2.2	-3.1
Cc1ccc(S(=O)(=O)N(CCO)Cc2cc3ccc(C)c(C)c3[nH]c2=O)cc1	2.5	8.7	-5.0	-3.8	9644	-11.5	3.5
COc1ccc(S(=O)(=O)N2CCC(C(=O)N3CCN(C)CC3)CC2)cc1OC	11.0	6.1	2.8	12.0	3603	-14.0	1.1
O=C(O)C(O)C(O)c1nc2ccccc2[nH]1 (centres undefined)	5.2	-0.3	0.5	-1.5	4748	-30.4	2.9
CC(C)c1ccc(NC(=O)NC2CCN(CC(=O)Nc3cccc4ccccc34)CC2)cc1	12.0	14.1	6.3	-7.6	2400	-11.7	-9.5
CC(Cc1ccccc1)=NNC(=O)CNC(=O)c1cccc(Cl)c1	1.8	-5.5	.	8.4	.	.	1.1
COc1ccc(-c2nc(N3CCCC3)[nH]c(=O)c2C#N)cc1	8.3	10.1	0.6	0.1	8229	-27.3	1.9
Oc1cccc(C=Nc2c(-c3ccco3)nc3ccccn23)c1	7.7	1.3	.	5.8	.	.	3.6
Cn1nc(C(F)(F)F)c(-c2ccccc2)c1NC(=O)CSCC(=O)O	10.4	-2.5	0.7	11.3	3361	-0.3	1.2
O=C(COc1cccnc1[N+](=O)[O-])Nc1cccc(S(=O)(=O)N2CCCCC2)c1	.	.	10.8	4.3	2483	-4.6	3.0
CCc1ccccc1NC(=O)NNC(=O)CCc1ccccc1	7.5	0.5	-0.3	9.2	4361	-12.2	4.3
O=C(CCc1ccccc1)Nc1ccc(F)c([N+](=O)[O-])c1	-0.3	-1.0	4.8	-4.3	4512	-15.2	-0.4
CCOC(=O)c1c(NC(=O)COC(=O)c2ccc([N+](=O)[O-])cc2)sc(C(=O)N(C)C)c1C	7.2	-9.8	7.7	-3.2	6112	-8.5	5.9
COc1cc(-c2nc(-c3cccnc3)no2)cc(OC)c1OC	4.7	2.3	-3.8	8.8	2042	-15.3	3.4
COC(=O)C1CCN(c2ccc([N+](=O)[O-])cc2[N+](=O)[O-])CC1	6.6	13.8	12.9	3.5	4431	-13.6	6.4
COc1ccc(OC)c(/C=C/C(=O)N2CCN(S(=O)(=O)c3ccc(C)cc3C)CC2)c1	-10.1	-10.2	.	-4.8	3909	-0.4	1.4
Cc1onc(-c2ccccc2Cl)c1C(=O)N1CCC(C)CC1	-9.6	1.1	4.6	5.7	3628	-21.2	2.9
Cc1ccc(NC(=O)CSC2=NCCN2)cc1	9.1	-0.4	-6.8	13.1	2477	-8.7	8.3
CC(=O)NN1C(=O)c2ccccc2NC1c1ccc(N(C)C)cc1 (centres undefined)	2.2	3.2	-1.0	10.4	2808	-7.4	2.9
Cc1ccc2nc(-c3ccc(NC(=O)CNC4CC4)cc3)sc2c1	16.5	3.7	2.0	57.8	4629	-85.2	30.5
O=C(COC(=O)Cn1nnc(-c2ccccc2)n1)Nc1ccccc1Br	12.9	5.2	.	6.8	3714	-16.2	4.3
c1ccc(-c2ccccc2OCCCCn2ccnc2)cc1	24.2	25.7	2.6	2.4	3446	-24.2	5.2
C=CCn1c(O)c(N=NC(=O)CNC(=O)Cc2ccccc2)c2ccccc21	5.2	17.8	4.4	3.1	5222	-3.7	0.3
COc1ccc(Oc2coc3cc(OC(=O)c4cccs4)ccc3c2=O)cc1	.	.	-1.7	13.1	2874	-8.7	6.7
COc1ccc(N2C(=O)CN(Cc3ccc(OC)c(OC)c3)C2=S)cc1	13.4	2.9	-3.2	-73.0	3912	-22.7	11.9
Cc1cc(Nc2cccc(C(=O)O)c2)n2ncnc2n1	11.2	-3.5	6.6	3.9	3430	-23.3	4.1
Cc1cccc(Nc2nnc(SCC3CCCCO3)s2)c1C (centres undefined)	1.7	0.6	-3.4	-1.2	2249	-24.6	2.0
COC(=O)c1c(C)[nH]c(C)c1-c1ccccc1Cl	.	.	5.9	-6.7	4295	-22.8	1.0
Cc1csc(NN=Cc2cccnc2)n1	0.4	6.4	.	5.9	.	.	8.1
O=C(Cc1ccccc1)NN=C/C=C/c1ccccc1[N+](=O)[O-]	-6.8	5.5	.	3.2	.	.	3.7
Nc1nc(-c2cc3c(cc2Cl)OCCO3)cs1	13.9	-3.5	2.2	0.9	3717	-51.3	2.7
CCOc1ccc(N(C(C)C(=O)Nc2ccc(OC)cc2)S(C)(=O)=O)cc1 (centres undefined)	11.5	3.8	-4.0	6.8	5882	-17.8	5.0
O=C(O)C1=C[C@H](c2ccccc2)C[C@H](OCCCCO)O1	.	.	1.0	.	3793	-20.7	.
Cc1ccccc1CC(=O)N1CCN(C(=O)c2ccco2)CC1	10.4	-2.0	-14.9	3.9	5710	-8.3	2.7
Cc1ccccc1NC(=O)CSc1nc2[nH]c(=O)cc(O)c2s1	1.7	-1.0	.	9.3	5932	-48.9	17.0
CCCn1c(SCC(=O)Nc2c(CC)cccc2CC)nnc1C(C)C	.	.	-4.0	6.5	4001	-18.4	2.8
CCCCc1ccc(Nc2nc(CCC)cc(=O)[nH]2)cc1	.	.	5.0	30.8	2387	-13.6	-17.1
O=C(COC(=O)c1ccccc1Cl)NC1CCCCCCC1	8.8	4.9	.	2.5	?	-76.5	5.4
COc1cc(C2=CCN(C(C)=O)CC2)ccc1OC(C)=O	10.0	11.9	-2.6	1.9	3760	-13.3	4.9
CCCCCCCCCCCC(=O)N/N=C/c1ccco1	.	.	0.5	.	?	-17.3	.
COCCNCC1C(Oc2ccc(Cl)cc2)C(=O)N1c1ccccc1C (centres undefined)	1.1	8.3	11.4	-3.1	2192	0.1	-1.4
CCCCn1c(N)c(N(CCOC)C(=O)COC(=O)COc2ccccc2C#N)c(=O)[nH]c1=O	-3.7	-6.9	4.5	-1.6	4197	-65.0	1.4
COc1ccc(-c2nc(CSCC(=O)N3CCN(c4cccc(C)c4)C(C)C3)c(C)o2)cc1OC (centres undefined)	-7.7	-5.1	-0.1	15.3	5228	-19.2	18.7
COc1cc2c(cc1OC)C(C(=O)O)C(c1cc(Br)c(O)c(OC)c1)N(C)C2=O (centres undefined)	.	.	2.8	1.0	4904	-0.4	1.9
CCOc1ccc(CN2CCN(c3cc(C)nc4c5c(C)cc(C)nc5nn34)CC2)cc1	-10.5	18.1	1.9	-4.2	.	.	-1.3
CCc1ccc(C2C3=C(CC(C)(C)CC3=O)Nc3c2c(=O)[nH]c2nc(C)nn32)cc1 (centres undefined)	1.6	7.2	-3.5	-2.6	21959*	-23.0	9.0
COc1ccc(-c2cc(C(F)(F)F)nc(NCc3cccs3)n2)cc1	11.2	2.4	8.2	6.6	2438	6.9	-0.8
Cc1ccc2oc(C(=O)Nc3nonc3C)c(C)c2c1	7.0	14.8	-1.1	2.6	5762	-21.5	2.1
CCc1c(C)c2ccc(OCC(N)=O)cc2oc1=O	0.5	2.1	1.0	2.8	24076*	-33.4	3.1
Cc1nc2c(cnn2-c2ccccc2)c(=O)[nH]1	9.4	2.4	4.5	-4.2	4037	-18.1	5.2
Cc1cc(C)n2nc(SCC(=O)Nc3ccccc3C)nc2n1	2.8	4.1	4.3	9.4	5105	-14.2	-1.8
COC(=O)C(=CC=Cc1ccccc1)NC(=O)c1ccccc1	-2.1	5.9	.	-5.1	.	.	3.5

Following part.
compound	Mtb hypoxia inh	Mtb hypoxia inh growth	BJeLR viability	Sa ugtP lethal	Bead autofluor	PrP 5UTR inh	RN4220 kill
CN(C)C=C1C(=O)N(C2CCCCC2)C(=O)N(C2CCCCC2)C1=O	.	.	-1.4	1.6	2060	-3.4	10.2
O=C(/C=C/c1cn(-c2ccccc2)nc1-c1cccnc1)c1ccco1	17.7	18.7	5.7	-1.7	4692	-8.9	-9.5
CCOc1ccc(C(=O)NC(=S)Nc2ccc(NC(=O)C(C)C)cc2)cc1[N+](=O)[O-]	-9.0	2.6	-13.0	6.1	2240	-12.8	3.8
Cc1cn(-c2ccccc2)c(C)c1C=NNc1nc(N2CCOCC2)nc(N2CCOCC2)n1	-0.3	9.6	.	-1.7	.	.	1.9
